# Assay outcomes: PubChem, National Center for Advancing Translational Sciences (NCATS)
# VACV mCherry inh: qHTS for Stage-Specific Inhibitors of Vaccinia Orthopoxvirus: mCherry Reporter Primary qHTS | Potency, µM (top dose mostly 36.5 µM), without a hit: at the top dose activity change, negative = inhibition, usual class: inhibitors | Vaccinia virus mCherry reporter infection, fluorescence; about a quarter of the inactives have no number | 310,000 tested, 0.63% active; active = well fitted inhibition curve with a large enough effect; inconclusive = small, poorly fitted or top-dose-only effect; inactive = no such curve, though single readings can be large or run the other way; tested in A549 cells; also: nearly all actives have a fitted effect of over 35% in size; inactives centre near -10
# Vaccinia Venus: qHTS for Stage-Specific Inhibitors of Vaccinia Orthopoxvirus: Venus Reporter Primary qHTS; Vaccinia virus Venus reporter expression, fluorescence; Potency, µM (series often up to 36.5 µM), without a hit: at the highest dose activity change, negative = inhibition, usual class: inhibitors; 330,000 tested, 0.46% active; AID 720580, 2013; active means well fitted inhibition curve with a large enough effect; inconclusive means small, poorly fitted or top-dose-only effect; inactive means no such curve, though single readings can be large or run the other way; tested in A549 cells; also: nearly all actives have a fitted effect of over 30% in size; inactives centre near -10
# * = called active by the depositor; i = inactive; ? = inconclusive; . = not tested or not shown; & = joins results of further samples; [ ] = remark or other dose. % is scaled to controls: 0 for no effect and ±100 for the full control effect; potency is read from the fitted curve at half-maximal effect.
SMILES,VACV mCherry inh,Vaccinia Venus
COc1c(S(=O)(=O)NCCN2CCOCC2)ccc(Cl)c1Cl,-20%,-4%
COc1ccc2c(CN3CCN(c4ccc(Cl)c(Cl)c4)CC3)cc(=O)oc2c1,9%,-8%
C[C@H]1CN([C@@H](C)CO)S(=O)(=O)c2ccc(Br)cc2O[C@@H]1CN(C)S(=O)(=O)c1ccccc1F,0%,1%
OCC1(O)OC[C@@H](O)[C@H]1O (some centres not stated),44%[activator],6%
Cc1ncc2c(c1CNC(=O)/C=C/c1cccs1)CCN(C(=O)c1ccc3c(c1)OCCO3)C2,-14%,-5%
COc1ccc2c(C)c(CCC(=O)NCc3ccccc3Cl)c(=O)oc2c1C,-20%,-10%
CN(C)c1ccc(C=c2c3ccccc3n3c2c2c([n+]3C)CCCC2)cc1,3.2µM*,6.3µM*
CCN(CC)C(=O)Cn1c(=O)n(C)c2ccccc21,-10%,-3%
Cc1c(C)c2c(c(C)c1O)CCC(C)(C(=O)O)O2 (configuration not stated),i,-11%
COc1ccc(CCNC(=O)C(=O)NCC2OCCCN2S(=O)(=O)c2cc(C)ccc2C)cc1 (configuration not stated),-25%,-18%
CC(=O)Nc1ccc(Nc2ccc3c4c(cc(=O)n3C)-c3ccccc3C(=O)c24)cc1,11%,18%
CC(c1ccccc1)(c1ccccc1)c1ccncc1,-17%,-17%
CN(C)CCN1C(=O)C(=O)/C(=C(/O)c2ccccc2)C1c1ccccc1F (configuration not stated),.,-8%
CCNc1[nH]c(=O)n(C)c(=O)c1N=O,-19%,-15%
Cc1ccc(-c2cc(=O)c3ccc(Cl)cc3[nH]2)cc1,39%[activator],4%
CCOP(=O)(c1ccccc1)C(O)c1ccc([N+](=O)[O-])cc1 (configuration not stated),-13%,?
Cc1ccc(Cl)cc1N(CC(=O)NC1CCCC1)C(=O)c1csnn1,-12%,-1%
O=C(CSc1nnc2c(n1)[nH]c1ccc(F)cc12)NC1CC1,-1%,14%
Cc1ccc(N2CCN(C(=O)c3cn(CC4CCCCC4)nn3)C(C)C2)cc1 (configuration not stated),?,-16%
CNc1ncnc(NC)c1[N+](=O)[O-],-14%,0%

# The closing six records of the part above open the next one.
SMILES,VACV mCherry inh,Vaccinia Venus
Cc1ccc(-c2cc(=O)c3ccc(Cl)cc3[nH]2)cc1,39%[activator],4%
CCOP(=O)(c1ccccc1)C(O)c1ccc([N+](=O)[O-])cc1 (configuration not stated),-13%,?
Cc1ccc(Cl)cc1N(CC(=O)NC1CCCC1)C(=O)c1csnn1,-12%,-1%
O=C(CSc1nnc2c(n1)[nH]c1ccc(F)cc12)NC1CC1,-1%,14%
Cc1ccc(N2CCN(C(=O)c3cn(CC4CCCCC4)nn3)C(C)C2)cc1 (configuration not stated),?,-16%
CNc1ncnc(NC)c1[N+](=O)[O-],-14%,0%
O=C(c1ccccc1)c1cccc(NC(=O)C2CC2)c1,i,-8%
CCCSc1ncc(Cl)c(C(=O)Nc2sc3c(c2C(=O)NCCCOC)CCCC3)n1,-26%,-26%
CCCCc1c(C)[nH]c(=S)[nH]c1=O,i,-9%
COc1ccc(CNC(=O)c2ccc(CN3CCOCC3)cc2)cc1,-13%,-10%
CC(O)COCC1OC2OC3C(COCC(C)O)OC(OC4C(COCC(C)O)OC(OC5C(COCC(C)O)OC(OC6C(COCC(C)O)OC(OC7C(COCC(C)O)OC(OC8C(COCC(C)O)OC(OC1C(OCC(C)O)C2OCC(C)O)C(OCC(C)O)C8OCC(C)O)C(OCC(C)O)C7OCC(C)O)C(OCC(C)O)C6OCC(C)O)C(OCC(C)O)C5OCC(C)O)C(OCC(C)O)C4OCC(C)O)C(OCC(C)O)C3OCC(C)O (configuration not stated),-13%,-15%
CCCn1c(SCC(=O)NC(C)C)nc2sc3c(c2c1=O)CCC3,-2%,-5%
CCOC(=O)c1sc(-c2ccc(OC)cc2)cc1N,.,-17%
CC(=O)N1CCc2cc(S(=O)(=O)NCCC(=O)NC3CCN(Cc4ccccc4)CC3)ccc21,-8%,3%
COc1ccc(-n2nc(C(=O)NCC(=O)Nc3cc(Cl)c(OC)cc3OC)c3ccccc3c2=O)cc1,-9%,-3%
COc1cc2c(cc1OC)C(COc1ccc(F)cc1)N(C(=O)C(C)C)CC2 (configuration not stated),0%,-7%
c1ccc2c3c([nH]c2c1)C1(CCNCC1)NCC3,-3%,-2%
COc1cc([C@@H]2c3cc4c(cc3[C@@H](O)[C@H]3COC(=O)[C@H]23)OCO4)cc(OC)c1O,11µM*,?
O=S(=O)(c1ccc(-c2ccccc2)cc1)N1CCOCC1,-3%&-11%,-15%&-5%
CC(C)CC(=O)N1CCN(Cc2ccc3c(c2)OCO3)CC1,-15%,-4%
CC1(C)C2CC=C(/C=N/n3cnnc3)C1C2 (configuration not stated),.,-11%
CCOC(=O)N1CCC(=NNC(=O)c2cc3ccccc3cc2O)CC1,-7%,-9%
Cc1cc(C)c(S(=O)(=O)N2CCCC(C(=O)NC3CCCC3)C2)c(C)c1 (configuration not stated),-6%,-3%
COc1ccccc1OCC(=O)N(Cc1cccs1)C1CCS(=O)(=O)C1 (configuration not stated),-2%,-6%
O=C(CN(C1CCCCC1)S(=O)(=O)c1ccccc1)NCc1cccnc1,.,-11%
CCOC(=O)c1cccc(NC(=O)C2CCCN(S(=O)(=O)c3cc(Br)cc4c3N(C(=O)CC)CC4)C2)c1 (configuration not stated),-12%,-12%
Cc1ccc(CNC(=O)C2CCC(=O)N(CC3CCCCC3)C2)o1 (configuration not stated),i,-5%
O=C(Cc1ccccc1)N[C@@H](Cc1ccccc1)c1nc2ccccc2[nH]1,.,-26%
CCCC(CCC)C(=O)Nc1ccc2c(c1)N(C(=O)CCN1CCN(C)CC1)c1ccccc1CC2,-9%,-11%
COc1cccc(/C=C(\C#N)c2nc3ccc(C)cc3[nH]2)c1,-20%,-23%
Cc1cc(C)c(C(=O)Nc2ccccc2)c(SCC(=O)Nc2ccc(Br)cc2C)n1,-17%,-14%
CCSc1nnc(NC(=O)[C@@H](NC(=O)c2ccccc2F)C(C)C)s1,i,0%
O=C(O)c1ccccc1C(=O)OCCc1cc2ccccc2c(=O)o1,i,-5%
CCN(CC#CCC1(O)c2ccccc2-c2ccccc21)CCO,-3%,-7%
Cc1cccc(CCNC(=O)c2cc3c(=O)[nH]c4ccc(C)cc4c3s2)c1,-27%,-20%
CCOc1ccc(CCNC(=O)CSc2nnnn2C)cc1OCC,i,-11%
O=c1c2ccccc2nc(SCc2nnc(-c3ccccc3Br)o2)n1-c1ccccc1,i,-8%
Cc1nc2nc(CNC(=O)c3cccc(F)c3)nn2c(C)c1CCC(=O)Nc1cccc(Cl)c1,5%,-9%
c1ccc(CN=C(NCc2ccccc2)NCc2ccccc2)cc1,-25%,-17%
CN(C)CCCNC(=O)CCc1ncc(C(F)(F)F)cc1Cl,-4%,-11%
COCC(C)NC(=O)Cc1ccc(F)cc1 (configuration not stated),-1%,-2%
CC1=C(C(=O)N2CCCCC2)C2(CCC(C)CC2)OC1=O (configuration not stated),-13%,-3%
C=CCNC(=S)Nc1ccc(C)c(S(=O)(=O)N2CCCCC2)c1,-6%,-7%
Cc1cccc(CCNC(=O)C2CCN(c3nc4ccccc4nc3C(F)(F)F)CC2)c1,2%,6%
Cc1ccc(S(=O)(=O)n2c([N+](=O)[O-])cnc2C)cc1C,-5%,-9%
O=C(Nc1nnc(-c2ccc(F)cc2)o1)c1ccc(S(=O)(=O)N2CCOCC2)cc1,-9%,-9%
O=C(CCNC(=O)c1ccc(Br)cc1)NNC(=O)COc1ccccc1F,-24%,-10%
COc1ccc(NC(=O)C(C)N(C)Cc2ccc3ccccc3c2)cc1 (configuration not stated),?,-3%
CCN(CC(=O)NCc1ccc(F)cc1)C(=O)Cc1c(F)cccc1Cl,-14%,-3%
CC(C)c1c(C(=O)N/N=C/c2ccccc2C(=O)O)nnn1-c1nonc1N,0%,-21%
CCOc1ccc2nc(NC(=O)COC)sc2c1,-20%,-13%
COc1ccc(-c2nc(-c3ccccc3)c(-c3cc([N+](=O)[O-])ccc3C)[nH]2)cc1O,.,?
CC(C)(C)c1ccc(OCCOCCn2c(-c3ccc(Cl)cc3)nc3ccccc3c2=O)cc1,-2%,-12%
CC(=O)NCCn1ccc2ccccc21,.,5%
O=C(Nc1ccccc1C(=O)NCc1cccnc1)c1ccc(Cl)cc1Cl,-23%,?
CC1CN(Cc2c(O)ccc3c(=O)c(-c4ccccc4)coc23)CC(C)O1 (configuration not stated),-3%,-14%
FC(F)(F)c1ccc(Oc2ccc(Cl)cc2Br)nc1,-1%,9%
COc1ccc(-c2cc(C)cc3c2OC(CNC(=O)/C=C/c2ccncc2)C3)nn1 (configuration not stated),-16%,-4%
O=C(O)COc1ccc(Br)cc1/C=N\Nc1ccccn1,-6%,-2%
COc1ccc(/C(C)=N/NC(=O)c2nnn(-c3nonc3N)c2-c2cccs2)cc1,i,-4%
O=c1cc(CSc2ccc(Cl)cc2)nc(-c2ccccc2)[nH]1,?,-14%
CC(=O)c1ccc(NS(=O)(=O)c2ccc(N)cc2)cc1,5%,5%
COc1ccc(N(CC(=O)Nc2ccccc2C(=O)O)S(=O)(=O)c2ccc(C)c([N+](=O)[O-])c2)cc1,-14%,-13%
CCN(CC)C(=O)c1cccc(-c2csc(C(O)(c3ccccc3)C(F)(F)F)n2)c1 (configuration not stated),?,?
O=C(COC(=O)/C=C/c1ccc2c(c1)OCO2)NC1CC1,-24%,-9%
CCC1=NN(S(=O)(=O)c2ccc(C)cc2)C(O)(C(F)(F)F)C1 (configuration not stated),5%,7%
# (listing goes on)
SMILES,VACV mCherry inh,Vaccinia Venus
O=C(/C=C/c1ccccc1Cl)NCCc1ccc(F)cc1,-9%,2%
CC(Sc1ccccn1)C(=O)Nc1ccccc1 (configuration not stated),-10%,-6%
CC1CCN(S(=O)(=O)c2ccc3c(c2)N(CC(=O)N2CCN(c4ccc(Cl)cc4)CC2)C(=O)CO3)CC1,-9%,-5%
Cc1ccc(C2NC(c3ccc(C)cc3)C(C)C(=NO)C2C)cc1 (configuration not stated),-15%,-14%
CCC(=NCCC(c1ccccc1)c1ccccc1)c1c(O)[nH]c(=O)[nH]c1=O,-15%,-23%
Cc1ccccc1C(=O)Nc1nnc(S(=O)(=O)N2CCCCCC2)s1,-12%&-10%,-14%&-8%
COc1ccc(NC(=O)C2CCCN(S(=O)(=O)c3ccc4c(c3)CC(C)N4C(C)=O)C2)cc1 (configuration not stated),i,-9%
COc1ccc(N2Cc3ccccc3C2=NC(=O)c2cccc([N+](=O)[O-])c2)cc1,-22%,-5%
O=C(CCC(=O)N1CCOc2ccccc21)NCc1cccnc1,-18%,-7%
O=C(NCc1cccs1)C1CCCN(C(=O)Nc2ccccc2)C1 (configuration not stated),-5%,10%
C=CCn1c(=O)/c(=C/c2ccc(Cl)cc2)s/c1=C(\C#N)c1nnc2n1CCCCC2,0%,-9%
CCNc1nc(NC#N)nc(SCC(=O)OCC)n1,.,-7%
O=S1(=O)CC(N2CCCCC2)CN1CCc1ccccc1 (configuration not stated),i,-10%
Cc1cc2c(cc1C)C(c1ccccc1OC(C)C)CC(=O)N2 (configuration not stated),?,-18%
CN(Cc1ccccc1)C(=O)c1ccc(NC(=O)Cc2ccc(NC(=O)C3CCCN(C(=O)C4CC4)C3)cc2)cc1 (configuration not stated),i,0%
O=C(c1cc2ccccc2cc1O)N1CCN(c2ccccc2O)CC1,?,-7%
Cc1nc(-c2cccc(N)c2)cs1,2%,0%
COc1ccc(CCNC(=O)c2ccccc2)cc1,i,-11%
Cc1ccc(N2CC(NC(=O)c3ccc(S(=O)(=O)N(C)C)cc3)CC2=O)cc1C (configuration not stated),-4%[7.34 µM],-6%[7.34 µM]
CCc1nc2ccc(C(=O)Nc3ccc(OC)c(OC)c3)cn2c1N(CCC(C)C)CCN(C)C,12%,-12%

# Entries of single compounds as entered above.
# O=C(/C=C/c1ccccc1Cl)NCCc1ccc(F)cc1 across the screens: VACV mCherry inh: -9%; Vaccinia Venus: 2%
# CNc1ncnc(NC)c1[N+](=O)[O-] across the screens: VACV mCherry inh: -14%; Vaccinia Venus: 0%

# (more compounds)
SMILES,VACV mCherry inh,Vaccinia Venus
CCCCNC(=O)C1CCN(C(=O)C2CCN(S(=O)(=O)c3ccc(C)cc3)CC2)CC1,-1%,-19%
COCC1CCCN(C(=O)c2ccc3oc(CCCc4ccccc4)nc3c2)C1 (configuration not stated),-4%,-15%
COc1ccc(OC(=O)c2cnn(-c3ccccc3)c2C)cc1,.,-9%
Cc1n[nH]c(=O)c2c(NC(=O)CSc3nc4ccccc4c(=O)n3CCCOC(C)C)oc(C)c12,i,-15%
O=C(Nc1ccccc1C(F)(F)F)c1nc(S(=O)(=O)Cc2ccccc2F)ncc1Cl,?,?
CCc1ccc(C(=O)NNc2ccc(C)c(Cl)c2)cc1,?,8%
CC(=O)Oc1ccc(Cn2c(C)c(C(=O)NC3CC3)sc2=O)cc1,12%,-8%
CCc1cccc(NC(=S)N(CCCN2CCOCC2)C(C)c2cc3cccc(OC)c3o2)c1 (configuration not stated),?,-8%
CCCN1C(=O)c2[nH]nc(-c3ccccc3)c2C1c1cccc(O)c1 (configuration not stated),0%,-3%
C=CCNCCCOc1ccc(C)cc1Br,?,?
CC(=O)C1=C(O)CC(C)(C)CC1=NCc1nc2ccccc2[nH]1,i,-16%
